Screening data deposited in PubChem BioAssay by PCMD.
Calb biofilm kill: mixture kills Candida albicans biofilm cells | inhibition, % at 7.6 µM | C. albicans biofilm persisters + clotrimazole, fluorescence viability; primary screen in compound mixtures of four per well | 120,000 compounds, 0.02% hits;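 active = inhibition above 30.3% in the primary screen of four-compound pools, then above 30% when the compound was retested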;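 note: compounds exposed to preformed 24 h biofilms for 48 h; the number belongs to the whole pool; some results filed as inactive read as strong as hits; inactives centre near 12; 0% = biofilm with clotrimazole alone and 100% = kill control; retested singly at about 60 µM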
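Incubation: 24 h biofilm formation, then 48 h compound exposure, 37 °C | Material: C. albicans biofilms | Buffer or medium: RPMI/MOPS medium, pH 7.0 | Measured by: 2-h Alamar Blue fluorescence, 535/590 nm excitation/emission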
The depositor's hits bear a star. A portion of the library; the hit share may differ from the screen's.

SMILES	Calb biofilm kill
CCOC(=O)C1(Cc2ccccc2)CCCN(Cc2ccc(OCCO)cc2)C1 (stereo unspecified)	11
CN(C)/C=C/C(=O)c1cnc2n(c1=O)CCS2	2
O=C(CN1CCCCCC1)Nc1cccc([N+](=O)[O-])c1	8
Cn1c(=O)c2ncn(CC(=O)N/N=C/c3ccco3)c2n(C)c1=O	18
Oc1ccccc1N=Cc1c(O)ccc2ccccc12	19
O=C(O)C1CCCCC1C(=O)NC(c1ccccc1)c1ccccc1 (stereo unspecified)	9
Cc1ccc(Cl)cc1NC(C#N)c1ccccc1 (stereo unspecified)	20
CCOc1ccc(CC(=O)N2CCN=C2SCc2ccc([N+](=O)[O-])cc2)cc1	3
CC(=O)c1ccc(NC(=O)/C(=C\c2cccs2)NC(=O)c2ccco2)cc1	10
CCn1c(SCc2ccc([N+](=O)[O-])cc2)nnc1C(C)NC(=O)c1ccc(C)cc1 (stereo unspecified)	10
CCOc1nc(Nc2cc(Cl)ccc2OC)nc(OCC)n1	4
Cc1ccc(-n2c(N)c(C(=O)Nc3c(C)n(C)n(-c4ccccc4)c3=O)c3nc4ccccc4nc32)cc1	4

Gathered by group: those above with a halogen (2)
SMILES	Calb biofilm kill
Cc1ccc(Cl)cc1NC(C#N)c1ccccc1 (stereo unspecified)	20
CCOc1nc(Nc2cc(Cl)ccc2OC)nc(OCC)n1	4

Additional results follow.
SMILES	Calb biofilm kill
COc1cc(/C=N/Nc2nc(C)nc3c2cnn3-c2ccccc2)ccc1O	2
O=C(NC(=S)Nc1ccc(N2CCOCC2)cc1)c1ccc2c(c1)OCCO2	5
COc1cc2c(cc1OC)C(Nc1ccccc1)=NC(C)(C)C2	10
COc1ccnc(CSC(N)=Nc2ccccc2OC)c1	11
Cc1cc(O)c(-c2cc(C(=O)Nc3sc4c(c3C(=O)NCc3ccco3)CCC4)[nH]n2)cc1C	19
CC(CCc1ccccc1)NC(=O)CCNC(=O)Cn1ccc2ccccc2c1=O (stereo unspecified)	0
CCNC(=O)C(CCSC)NS(=O)(=O)c1ccc(C)cc1 (stereo unspecified)	18
COc1ccc(-c2nc3ccccc3c(=O)n2CCOc2ccc(C)cc2C)cc1	16
CC(NC(=O)CCN1C(=O)c2ccccc2C1=O)c1ccc2c(c1)CCCC2 (stereo unspecified)	17
COc1cc2c(cc1OC)CN(C(=O)c1ccc(S(=O)(=O)N(C)c3ccccc3)cc1)CC2	2
Cc1cccc(-c2noc(-c3c(C)noc3C)n2)c1	15
O=c1c(Cl)c(N2CCN(c3ccc(F)cc3)CC2)cnn1C12CC3CC(CC(C3)C1)C2	6
CCCCN(CC)Cc1c(O)ccc2c3c(c(=O)oc12)CCC3	24
C/C(=N\NS(=O)(=O)c1ccc(Cl)cc1)c1ccc(NC(=O)c2ccco2)cc1	7
O=C(/C=C/c1ccccc1)NCCOc1ccccc1	22
CS(=O)(=O)Nc1cccc(C2=NN(S(C)(=O)=O)C(c3ccc4c(c3)OCO4)C2)c1 (stereo unspecified)	11
CCOC(=O)C(NC(=O)CC)(Nc1ccc(S(N)(=O)=O)cc1)C(F)(F)F (stereo unspecified)	15
O=C1NC(=S)N/C1=C/c1cccn1-c1ccc([N+](=O)[O-])cc1	19
COc1cc(NC(=O)COC(=O)C2CC2)c(C)cc1[N+](=O)[O-]	9
CN(c1ccccc1)S(=O)(=O)c1ccc(Cl)c(C(=O)OCC(=O)N2CCOCC2)c1	13
CCCC(C)NC(=O)c1c2c(nc3ccccc13)CCC2 (stereo unspecified)	12
O=C(CN1CCN(c2ccccc2)CC1)Nc1ccc2c(c1)OCCO2	18
CN(Cc1ccccc1)C(=O)CSc1nc2cc(C(=O)N3CCC(C(N)=O)CC3)ccc2c(=O)n1-c1ccccc1	17
O=C(/C=C/c1cccc([N+](=O)[O-])c1)Nc1cc(C(=O)O)cc(C(=O)O)c1	14
O=c1[nH]c2ccc(S(=O)(=O)N3CCCCC3)cc2[nH]c1=O	11
CO/N=C/CC(=O)c1cnc(-c2ccc(Cl)cc2)s1	13
C/C(=N/NC(=O)Nc1ccccc1)c1ccc(C)cc1	3
Cc1ccc(OCC(=O)NNC(=O)c2ccoc2C)c(Br)c1	8
CN(Cc1ccccc1)S(=O)(=O)c1ccc(NC(=S)NC(=O)C2CCCCC2)cc1	25
Cc1ccc(NC(=S)NC(=O)c2sc3ccccc3c2Cl)c(C(=O)O)c1	-10
CC(=O)Nc1ccc(NC(=O)C(C)N2CCN(S(=O)(=O)c3ccc(C)cc3)CC2)cc1 (stereo unspecified)	10
CCN(CC(=O)Nc1ccc(NC(C)=O)cc1)C(=O)c1n[nH]c(=O)c2ccccc12	-9
CC(=O)N1CCc2c(sc3c2c(=O)n(-c2ccccc2)c(=O)n3Cc2ccccc2Cl)C1	11
CC(=O)c1c(C)[nH]c(C2=NNC(=NCc3ccccc3)SC2)c1C	4
N#C/C(=C\c1ccc(O)c([N+](=O)[O-])c1)C(=O)NCc1ccccc1	-2
S=c1[nH]nc(Nc2ccccc2Cl)s1	7
CCOC(=O)C1=NN(C(=O)c2cccc(Br)c2)C(O)(C(C)(C)C)C1 (stereo unspecified)	20
Cc1ccc(C2=NNC(c3cccc(F)c3)S2)cc1 (stereo unspecified)	16
COc1ccc2c3c1OC1CC(O)C=CC31CCN(C)C2 (stereo unspecified)	15
Cc1cccc(NC2=C(C#N)C(=O)NC3(CCCC3)S2)c1	19
O=C(Nc1cccc(-c2nc3cccnc3s2)c1)C1c2ccccc2Oc2ccccc21	15
CC1(C)CC2(CCO1)OC(=O)CC2C(=O)Nc1c(Cl)cccc1Cl (stereo unspecified)	9
Cc1ccc(Nc2nc(N)nc(CSc3nncn3C)n2)cc1	6
COc1ccc(C(=O)NNC(=O)CSc2nc3c([nH]2)c(=O)n(C)c(=O)n3C)cc1	14
CCOc1cccc(OCCOCCNC(C)(C)C)c1	15
O=C(Sc1cccc2cccnc12)c1ccc(F)cc1	5
C=C(C)C(=O)Nc1cccc(C2=NOC3(C2)C[C@@H](C(N)=O)N(C(=O)/C(C)=C/C)C3)c1 (stereo partly specified)	16
FC(F)(F)c1cccc(Nc2cc(-c3ccccc3)nc3ncnn23)c1	25
CCCCOC(=O)C1=C(C)NC(=O)NC1c1ccc([N+](=O)[O-])s1 (stereo unspecified)	1
Cc1cc(C)cc(N2CCCC2=O)c1	6
Cn1c(=O)c(C(=O)CN2CCc3ccccc32)c(N)n(Cc2ccccc2)c1=O	12
COc1cccc(CN2CCN(Cc3cccn3-c3cccnc3)CC2CCO)c1 (stereo unspecified)	1
COC(CNC(=O)C1CCN(C(=O)c2cc3oc(C)cc3n2Cc2c(F)cccc2Cl)CC1)OC	6
Cc1ncoc1C(=O)N1CCCC(C(=O)c2ccc(C(F)(F)F)cc2)C1 (stereo unspecified)	11
C=CC(=O)N1c2ccccc2Sc2ccc(NC(=O)OCC)cc21	18
COC(=O)CC1COc2ccccc2N1C(=O)c1cccc(C(F)(F)F)c1 (stereo unspecified)	7
CCn1c2ccc(C)cc2c2nnc(SCCN3CCOCC3)nc21	6
O=c1[nH]oc(O)c1-c1ncc(C(F)(F)F)cc1Cl	8
COC(=O)CSc1nc2c(c(C3CC=CCC3)c1C#N)CCC2 (stereo unspecified)	9
COC(=O)CCCC(=O)NC(C)c1cnn(-c2ccccc2C)c1C (stereo unspecified)	18
Other entries.
SMILES	Calb biofilm kill
COc1cc(C2C(C#N)=C(C)NC(C)=C2C#N)cc(OC)c1OC	21
COc1ccccc1CCN=C(N)NS(=O)(=O)c1cccs1	-8
O=[N+]([O-])c1cc(CN2CCCC2)c2cccnc2c1O	18
COc1ccc([N+](=O)[O-])cc1N(CC(=O)NCCSc1ccc(C)cc1)S(C)(=O)=O	13
Cc1c(N2C(=O)/C(=C\c3ccc(N(C)C)cc3)N(C)C2=S)c(=O)n(-c2ccccc2)n1C	23
COc1ccc(NS(=O)(=O)c2cc(NC(=O)c3ccc(F)cc3)ccc2OC)cc1	7
O=C(COc1ccc(F)cc1)NNC(=O)c1cc2ccccc2oc1=O	13
O=C(N/N=C/c1cnc(N2CCCCC2)s1)c1ccc(C(F)(F)F)cc1	11
NN/C(=C\[N+](=O)[O-])Nc1ccccc1	17
Cc1cccc(NC(=O)c2cc(Cl)ccc2[N+](=O)[O-])c1	19
CC(C)Oc1ccc(C(=O)NC(Cc2c[nH]c3ccccc23)C(=O)NN)cc1 (stereo unspecified)	19
CC(C(O)C12CC3CC(CC(C3)C1)C2)N1CCCCC1 (stereo unspecified)	13
Cc1ccc(C(C[N+](=O)[O-])c2c(C)cc3ccccn23)cc1 (stereo unspecified)	7
O=C(O)COn1c(-c2ccc(Cl)cc2)nc2ccc(Cl)cc21	18
O=C(Nc1ccc(S(=O)(=O)NC2=NCCCCC2)cc1)c1ccco1	22
FC(F)(F)c1cccc(NC(=S)NNC(=S)Nc2cccc(C(F)(F)F)c2)c1	15
O=C(C1=C[C@H](c2ccc(Br)cc2)C[C@H](OCc2ccc(CO)cc2)O1)N1CCOCC1	14
Cc1csc(NC(=O)CSc2nnc(-c3ccoc3C)n2C(C)c2ccccc2)n1 (stereo unspecified)	18
CCOC(=O)N1CCN(C(=S)NC(=O)c2cncc(Br)c2)CC1	20
O=[N+]([O-])c1cccc(-c2ccc(SCc3ccccn3)nn2)c1	9
CCCC(=O)Nc1ccc2nc(SCC(=O)N3CCCC3)sc2c1	10
COc1cc(C(=O)O/N=C(\N)c2ccccn2)cc(OC)c1OC	15
CC(C)(CC(=O)O)CC(=O)NCc1c(Cl)cccc1Sc1ccc(Cl)cc1	25
CN(C)Cc1ccccc1COc1ccccc1	11
O=c1cc(NCc2ccccc2)nc2n1CCCS2	8
O=[N+]([O-])c1cc(S(=O)(=O)N2CCCCCC2)ccc1F	23
Cc1ccc(C)c(S(=O)(=O)NCc2ccc(C(=O)NCc3ccco3)cc2)c1	20
NC(=S)Nc1c(Cl)cccc1Cl	16
Fc1ccc(-c2cc(C(F)(F)F)nc(-n3cc(Cl)cn3)n2)cc1	2
O=C(c1cnc2n(c1=O)CCS2)N1CCCc2ccccc21	11
CC1CC(C)(C)NC(=S)N1CCCC(=O)N1CCN(c2ccc(F)cc2)CC1 (stereo unspecified)	13
Cc1ccc(S(=O)(=O)C2(C(=O)Nc3ccc(C(C)C)cc3)CC2)cc1	-8
Cc1cccc(N)c1SC1CCCCC1O (stereo unspecified)	5
CCOC(=O)c1cnc2cc(C)ccn2c1=O	20
CCCn1nnc(NC(=O)c2ccc3c(c2)OCO3)n1	21
O=C(CCc1nnc(-c2ccsc2)o1)N1CCCCC1CCn1ccnc1 (stereo unspecified)	9
O=C(Nc1ccncc1)C1CCN(S(=O)(=O)c2cccs2)CC1	-2
CSc1nccc(Oc2cccc(C#N)c2)n1	14
COc1ccc(CCCC(=O)N/N=C/c2ccc(C)cc2)cc1	13
O=C1C2C3C=CC(C3)C2C(=O)N1CCN1CCN(S(=O)(=O)/C=C/c2ccccc2)CC1 (stereo unspecified)	7
COC(=O)c1sccc1-n1cccc1C(=O)C(=O)N1CCOCC1	-3
O=C(Nc1ccccc1-c1nc2ccccc2s1)c1cccnc1	5
CCC(=O)Nc1nc2ccccc2n1Cc1ccc(Cl)cc1	31
CCOc1ccccc1N1CCN(C(=S)NCc2ccccc2)CC1	4
CNS(=O)(=O)c1ccc2ccccc2c1	0
O=C/C(=C\Nc1ccccn1)c1nc2cc(Cl)ccc2o1	-9
O=c1c2ccccc2nc(SCc2cc([N+](=O)[O-])cc3c2OCOC3)n1-c1ccccc1	17
COc1ccc(CCNC(=O)C2CCC(CNS(=O)(=O)c3ccc(F)cc3)CC2)cc1OC (stereo unspecified)	14
CCO[C@@H]1OC(C(=O)NC2CC2)=C[C@H](C(C)(C)C)[C@H]1CCCO	17
CCOC(=O)c1cnc2c(cnn2C)c1NCc1ccc(OC)cc1	9
Cc1cccc2sc(NC(=O)CN3C(=O)c4ccccc4C3=O)nc12	22
Cc1cc(C(F)(F)F)n(-c2nc(C(=O)O)cs2)n1	14
Nc1nc2n(n1)C(=O)CC(c1ccc(Cl)cc1)N2 (stereo unspecified)	13
COc1ccc(NC2=C(Cl)C(=O)N(CCc3ccccc3)C2=O)c(OC)c1	9
Cc1ccccc1NC(=O)c1ccc(Cn2cc([N+](=O)[O-])cn2)o1	24
COCCNC(=O)[C@H](C)[C@H]1C[C@]1(C)[C@H](NC(=O)OCc1ccccc1)c1ccccc1	6
CC(C)(C)c1cc(NCCCn2ccnc2)n2ncc(-c3ccccc3)c2n1	20
O=C1N/C(=C/c2cccs2)C(=O)N1Cc1ccc(F)cc1	-14
CC(=O)NC(=S)Nc1ccccc1F	-5
COc1cccc(Cn2c(=O)c3ccccc3n3nc(C)cc23)c1	-9

Among those listed so far, 9 have a CF3 group:
SMILES	Calb biofilm kill
CCOC(=O)C(NC(=O)CC)(Nc1ccc(S(N)(=O)=O)cc1)C(F)(F)F (stereo unspecified)	15
FC(F)(F)c1cccc(Nc2cc(-c3ccccc3)nc3ncnn23)c1	25
Cc1ncoc1C(=O)N1CCCC(C(=O)c2ccc(C(F)(F)F)cc2)C1 (stereo unspecified)	11
COC(=O)CC1COc2ccccc2N1C(=O)c1cccc(C(F)(F)F)c1 (stereo unspecified)	7
O=c1[nH]oc(O)c1-c1ncc(C(F)(F)F)cc1Cl	8
O=C(N/N=C/c1cnc(N2CCCCC2)s1)c1ccc(C(F)(F)F)cc1	11
FC(F)(F)c1cccc(NC(=S)NNC(=S)Nc2cccc(C(F)(F)F)c2)c1	15
Fc1ccc(-c2cc(C(F)(F)F)nc(-n3cc(Cl)cn3)n2)cc1	2
Cc1cc(C(F)(F)F)n(-c2nc(C(=O)O)cs2)n1	14
